Fluorescein autfl – qHTS Assay for Spectroscopic Profiling in Fluorescein Spectral Region; 59,000 compounds, 0.91% hits; max fluorescein-equivalent concentration, M; AID 593, 2007; Compound autofluorescence, 480/540 nm, fluorescein-equivalent; hits give high values; in the data active = max fluorescein-equivalent concentration above about 10 nM; inconclusive = between about 1.1 nM and that limit
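Each compound is tested across a concentration series in 100 mM Tris buffer at pH 8.0. After 15 min at room temperature, plates are imaged with 480 nm excitation and 540 nm emission filters, and intensities are converted to fluorescein-equivalent values.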
Rhodamine autofl – qHTS Assay for Spectroscopic Profiling in Rhodamine Spectral Region | max dye-equivalent concentration, M | AID 594, 2007 | Rhodamine-region fluorescence, 547/598 nm, Tris buffer; hits give high values | 59,000 compounds, 0.05% hits; in the data active = max dye-equivalent concentration above about 11 nM; inconclusive = between about 1.1 nM and that limit
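qHTS spectral profiling of compounds without any target or enzyme present, in pH 8.0 Tris buffer; plates were read after a 15-minute room-temperature incubation using the rhodamine-region filter set.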
GFP derepression – qHTS Assay for Epigenetic Modulators; mouse C127i GFP locus derepression, cytometry, 30 h; Potency, µM (doses to about 46.1 µM), for inactives: at the highest dose GFP derepression (activation); 68,000 compounds, 0.09% hits; also: % of control where 0% means no effect
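Murine C127i mammary cells carrying a silenced, stably integrated CMV-driven GFP reporter were treated with compound for 30 hours at 37 C. After PBS washes, GFP-positive cells were counted by laser-scanning microplate cytometry.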
DNA Pol III inh – qHTS Assay for Inhibitors of DNA Polymerase III Holoenzyme System. 71,000 compounds, 0.25% hits. reconstituted DNA polymerase III holoenzyme replication, biochemical. Potency, µM (top dose mostly 57.1 µM), inactives show top-dose activity change, negative = inhibition; also: potency is read from the fitted curve at half-maximal effect; % is scaled to controls: 0 for no effect and ±100 for the full control effect
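Reconstituted *E. coli* holoenzyme (0.35 nM Pol III, 1 nM beta, 154 nM SSB, 2 nM primase) was preincubated with compound for 15 min at RT. Synthesis on 1.4 nM ssM13Gori ran 35 min, then was stopped with PicoGreen/EDTA and read as dsDNA fluorescence.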
Ub-GFP proteasome – Ubiquitin-GFP Assay. Ubiquitin-GFP reporter cells, proteasome inhibition, GFP fluorescence; response scale: untreated = 0%, 10 µM MG-132 = 100%. Potency, µM (titrated, usually from 45.9 µM), for the others: at the top dose activation (GFP accumulation), most hits filed as activators. 67,000 tested, under 10 active; active = well fitted activation curve with a large enough effect, not every such curve was filed as active; inconclusive = small, poorly fitted or top-dose-only effect, or another doubt; inactive = no such curve, though single readings can be large or run the other way; also: potency is read from the fitted curve at half-maximal effect
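Reporter cells (U2OS, ubiquitin-G76V-GFP fusion) are plated overnight, then treated 4 hr at 37 °C with compound titrations from 46 uM down to 2.9 nM. Activity is scaled against untreated cells and 10 uM MG-132.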
HBB splicing – qHTS Assay for Modulators of Hemoglobin Beta Chain Splicing. HBB splicing reporter cell assay, activation; EGFP reporter with mutant IVS2-654 intron; response scale: normalised to 500 nM splice-correcting PNA. Potency, µM (top dose mostly 46.1 µM), for the others: at the top dose activation, usual class: activators. 65,000 compounds, 0.06% hits; also: potency is read from the fitted curve at half-maximal effect; 0% is about no effect
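HeLa cells stably expressing EGFP interrupted by mutant beta-globin intron 2 (IVS2-654), 500/well in 2% FCS. Treated with compound for 2 days at 37C. Splicing correction scored as total well GFP intensity (488 nm excitation, 500-520 nm emission); 500 nM antisense PNA served as control.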
Texas Red fluor – qHTS Assay for Spectroscopic Profiling in Texas Red Spectral Region | Compound fluorescence, Texas Red channel, 547/618 nm; hits give high values | max dye-equivalent concentration, M | 59,000 compounds, 0.06% hits | AID 587, 2007; in the data active = max dye-equivalent concentration above about 10 nM; inconclusive = between about 1.1 nM and that limit
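Texas Red-region profiling: compounds in 100 mM Tris pH 8.0 were read at 547/618 nm after 15 min at room temperature. Intensities were normalized against a six-point Texas Red standard series to give dye-equivalent concentration.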
ALOX15 inhib – qHTS Assay for Inhibitors of 15-hLO (15-human lipoxygenase); purified 15hLO-1, xylenol orange hydroperoxide absorbance; Potency, µM (doses to about 57.1 µM), without a hit: at the highest dose activity change, negative = inhibition, hits mostly inhibitors; 74,000 compounds, 1.4% hits; AID 887, 2007; also: potency is read from the fitted curve at half-maximal effect; % is scaled to controls: 0 for no effect and ±100 for the full control effect; nearly all actives have a fitted effect of over 55% in size
Target sequence (P16050 whole entry, looked up): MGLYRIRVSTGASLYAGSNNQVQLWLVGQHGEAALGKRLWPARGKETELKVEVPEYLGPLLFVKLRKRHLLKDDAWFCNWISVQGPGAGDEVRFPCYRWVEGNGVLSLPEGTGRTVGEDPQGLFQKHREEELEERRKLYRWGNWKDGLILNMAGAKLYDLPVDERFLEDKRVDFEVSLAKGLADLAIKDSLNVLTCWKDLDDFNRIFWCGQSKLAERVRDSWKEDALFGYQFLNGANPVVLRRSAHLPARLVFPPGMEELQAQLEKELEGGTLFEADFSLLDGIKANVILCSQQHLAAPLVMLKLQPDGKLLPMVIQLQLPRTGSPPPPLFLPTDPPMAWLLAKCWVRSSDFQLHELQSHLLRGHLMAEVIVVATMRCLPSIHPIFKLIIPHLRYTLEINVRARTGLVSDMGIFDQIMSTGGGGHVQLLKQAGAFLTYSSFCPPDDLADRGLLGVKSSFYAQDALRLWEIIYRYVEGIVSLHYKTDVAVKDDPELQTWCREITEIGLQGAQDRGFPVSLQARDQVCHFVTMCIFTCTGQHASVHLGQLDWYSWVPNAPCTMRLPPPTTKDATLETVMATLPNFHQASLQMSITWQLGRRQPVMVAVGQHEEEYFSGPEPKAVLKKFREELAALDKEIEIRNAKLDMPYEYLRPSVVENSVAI
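Hydroperoxide formed from arachidonic acid (50 uM) by purified human 15hLO-1 (40 nM) oxidizes ferrous iron, and the ferric-xylenol orange complex is read at 573 versus 405 nm. Compounds were preincubated 15 min; reaction ran 6 min at room temperature.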
Starred values were filed as active, the others as inactive; i = inactive; ? = inconclusive; . = no result given; [ ] = remark or other dose. Unless noted, calls follow the shape of the dose curve; as a rule, active = well fitted curve in the direction sought with a large enough effect; inconclusive = small, poorly fitted or top-dose-only effect, or another doubt; inactive = no such curve, though single readings can be large; an effect the other way counts as inactive or inconclusive. Only part of the results is shown, so the mix of outcomes need not match the whole.

entry | SMILES | Fluorescein autfl | Rhodamine autofl | GFP derepression | DNA Pol III inh | Ub-GFP proteasome | HBB splicing | Texas Red fluor | ALOX15 inhib
1 | N#Cc1cn(CC(=O)N2CCCC2)c2ccccc12 | i | i | -3% | 4% | 3% | 0.3% | i | -12%
2 | COC(=O)c1c(NC(=O)CSc2nnnn2-c2ccccc2)sc2c1CCC(C)C2 (centres undefined) | i | i | 3% | -2% | 2% | -0.3%[57.5 µM] | i | -4%
3 | Cn1c(SCC(=O)Nc2nc3c(s2)CCCC3)nnc1-c1ccccc1 | i | i | 4% | -5% | 11% | -1.9% | i | -9%
4 | Cc1cc(N2CCCN(C)CC2)nc2cc(Cl)ccc12 | . | . | 0% | 3% | 5% | -0.9%[9.22 µM] | . | -4%
5 | Cc1ccc(-c2nn(-c3ccccc3)c3[nH]c(=O)c(CNCCN(C)C)cc23)cc1 | ? | i | 0% | -1% | ? | -2.4% | ? | 5%
6 | CCCCC(=O)Nc1nn(CCC)c2nc3ccccc3cc12 | i | i | 0% | -6% | 3% | -2.0%[0.369 µM] | i | 4%
7 | CCn1c(Cc2ccccc2)nnc1SCC(=O)Nc1ccccc1 | i | i | -2% | 0% | 0% | . | i | 0%
8 | CCOC(=O)c1c(-c2ccccc2)nnn1-c1nc(OCC)nc(N2CCCCC2)n1 | i | i | -1% | 3% | 3% | -5.1% | i | -7%
9 | O=C(Nc1cccc(-c2nc3ccccc3[nH]2)c1)c1ccco1 | i | i | -4% | -4% | -4% | 2.9% | i | -18%
10 | CCCCn1ccc(=O)c2c(C(F)(F)F)nccc21 | . | . | 2% | -4%[11.4 µM] | 0%[9.17 µM] | 4.5%[0.0738 µM] | . | 6%[11.4 µM]
11 | CSc1ccc(S(=O)(=O)Nc2ccc3c(c2)OCCO3)cc1 | . | . | . | 1% | -4% | -0.5% | . | -13%
12 | CC(c1ccccc1)C1CC(=O)N(CC(=O)O)C1=O (centres undefined) | ? | i | -2% | 4% | -1% | -1.0% | ? | 7%
13 | CN(C)c1oc(-c2ccccc2)nc1C#N | i | i | 0% | -4% | -1% | -0.2% | i | -4%
14 | O=C1C2CCCN2C(c2cccs2)N1c1ccc(Cl)cc1 (centres undefined) | i | i | 3% | -3% | 4% | -3.3% | i | 2%
15 | COc1cc2c(cc1OC)CN(C(=O)CC1CC3CCC1C3)CC2 (centres undefined) | i | i | 0% | -6% | 9% | -0.5% | i | -1%
16 | CC(C)CNC(=O)C1CCN(c2ccc(S(=O)(=O)N3CCOCC3)cc2Cl)CC1 | i | i | 1% | 2% | -10% | . | i | 2%
17 | O=C(NCCCn1ccnc1)c1cc2c(s1)CCCCC2 | i | i | 0% | -3% | 10% | 0.1% | i | 6%
18 | COc1ccc(C2NC(=O)NC(C)=C2C(=O)Nc2cccc(C)c2C)cc1 (centres undefined) | . | . | . | -2% | 7% | -1.5% | . | 10%
19 | COc1cccc(C2NC(=O)NC(C)=C2C(=O)Nc2ccc(C)cc2)c1 (centres undefined) | . | . | . | -3% | 8% | -0.3% | . | 4%
20 | COc1ccc(OC)c(C2NC(=O)NC(C)=C2C(=O)Nc2ccc(C)cc2)c1 (centres undefined) | . | . | -3% | -3% | 10% | 0.0% | . | 1%

Reformatted screen by screen: entries from further up.
1	N#Cc1cn(CC(=O)N2CCCC2)c2ccccc12
2	COC(=O)c1c(NC(=O)CSc2nnnn2-c2ccccc2)sc2c1CCC(C)C2 (centres undefined)
3	Cn1c(SCC(=O)Nc2nc3c(s2)CCCC3)nnc1-c1ccccc1
4	Cc1cc(N2CCCN(C)CC2)nc2cc(Cl)ccc12
5	Cc1ccc(-c2nn(-c3ccccc3)c3[nH]c(=O)c(CNCCN(C)C)cc23)cc1
6	CCCCC(=O)Nc1nn(CCC)c2nc3ccccc3cc12

assay / compound | 1 | 2 | 3 | 4 | 5 | 6
Fluorescein autfl | i | i | i | . | ? | i
Rhodamine autofl | i | i | i | . | i | i
GFP derepression | -3% | 3% | 4% | 0% | 0% | 0%
DNA Pol III inh | 4% | -2% | -5% | 3% | -1% | -6%
Ub-GFP proteasome | 3% | 2% | 11% | 5% | ? | 3%
HBB splicing | 0.3% | -0.3%[57.5 µM] | -1.9% | -0.9%[9.22 µM] | -2.4% | -2.0%[0.369 µM]
Texas Red fluor | i | i | i | . | ? | i
ALOX15 inhib | -12% | -4% | -9% | -4% | 5% | 4%

Rewritten field by field: 2 of the compounds above.
8	CCOC(=O)c1c(-c2ccccc2)nnn1-c1nc(OCC)nc(N2CCCCC2)n1
  Fluorescein autfl: i | Rhodamine autofl: i | GFP derepression: -1% | DNA Pol III inh: 3% | Ub-GFP proteasome: 3% | HBB splicing: -5.1% | Texas Red fluor: i | ALOX15 inhib: -7%
3	Cn1c(SCC(=O)Nc2nc3c(s2)CCCC3)nnc1-c1ccccc1
  Fluorescein autfl: i | Rhodamine autofl: i | GFP derepression: 4% | DNA Pol III inh: -5% | Ub-GFP proteasome: 11% | HBB splicing: -1.9% | Texas Red fluor: i | ALOX15 inhib: -9%

New compounds follow:
entry | SMILES | Fluorescein autfl | Rhodamine autofl | GFP derepression | DNA Pol III inh | Ub-GFP proteasome | HBB splicing | Texas Red fluor | ALOX15 inhib
21 | Cc1cnn(C(=S)NCC2CCCO2)c1 (centres undefined) | i | i | 3% | -1% | -2% | 7.7% | i | 13%
22 | O=C(NCc1ccc2c(c1)OCO2)c1ccc(NC(=O)C2CCCO2)cc1 (centres undefined) | ? | i | 0% | -1% | 16% | -2.1% | i | 5%
23 | Nc1c(C(=O)NCCN2CCOCC2)c2nc3ccccc3nc2n1CCc1ccccc1 | ? | i | 4% | -12% | -3% | -4.3%[57.5 µM] | i | ?
24 | COc1ccc(C2NC(c3ccc(OC)c(OC)c3OC)C(C)C(=O)C2C)c(OC)c1OC (centres undefined) | ? | i | 0% | -2% | 4% | -0.9% | i | -6%
25 | COc1cccc(OC)c1OCCOCCn1cnc2ccccc2c1=O | ? | i | -2% | -6% | -1% | 3.2% | i | 1%
26 | COc1nc(Nc2ccc3c(c2)OCO3)nc(OC)n1 | . | . | . | -3% | -4% | -1.0% | . | 7%
27 | Cc1cc(C)nc(SCCC(=O)N(C)C)n1 | i | i | 0% | 4% | -3% | . | i | -22%
28 | CCN(Cc1ccncc1)C(=O)c1cccs1 | . | . | -2% | 4%[11.4 µM] | 9%[9.17 µM] | -6.8%[0.0738 µM] | . | -4%[11.4 µM]
29 | CC1=C(C(=O)Nc2ccccc2)C(c2cccs2)n2nnnc2N1 (centres undefined) | i | i | 11% | -2% | 2% | -2.0% | i | 1%
30 | CCCCN1CCCCC1C(=O)Nc1c(C)cc(C)cc1C (centres undefined) | i | i | -1% | -6% | -3% | 0.8% | i | -4%
31 | COc1ccc(NC(=O)C2CCN(S(=O)(=O)c3ccc(OC)c(OC)c3)CC2)c(OC)c1 | . | . | -4% | -4%[11.4 µM] | -15%[9.17 µM] | -2.5%[0.0738 µM] | . | -1%[11.4 µM]
32 | COc1ccccc1NC(=O)CN1CCC(n2c(C)nc3cc(F)ccc32)CC1 | i | i | 1% | -1% | -1% | -0.4%[57.5 µM] | i | -5%
33 | CCc1nc(NCC2CCCN2CC)c2nnn(Cc3ccccc3F)c2n1 (centres undefined) | i | i | 2% | -6% | -2% | . | i | 1%
34 | Cc1ccc2[nH]c(=O)c(-c3noc(-c4ccncc4)n3)cc2c1 | i | i | 2% | -4% | 9% | . | ? | 0%
35 | COC(=O)COC(=O)CC(CC(N)=O)c1ccccc1 (centres undefined) | . | . | 0% | 4% | -6% | 0.2% | . | 2%
36 | Cc1ccc(-c2nnn(CC(=O)N(CC(=O)NCc3ccccc3)c3cccc(C)c3C)n2)o1 | ? | i | -4% | 3% | 4% | -1.1% | ? | ?
37 | O=C1NCC(O)=C1C=NC12CC3CC(CC(C3)C1)C2 | i | i | 0% | 1% | 3% | -0.3% | i | 10%
38 | COc1ccc(OCC(=O)Nc2cccc(OC)c2)cc1 | i | i | -2% | -2% | -5% | -0.3%[57.5 µM] | i | 11%
39 | Cc1nnc2sc(-c3ccccn3)nn12 | ? | i | -2% | 2% | . | -0.1%[0.369 µM] | i | -4%
40 | CN(C)CCCNc1cc(Cl)c(S(=O)(=O)N2CCCCC2)cc1C(=O)O | i | i | -3% | 1% | 13% | -0.1% | i | 3%
41 | CCOC(=O)N1CCN(C(=O)CSCC(=O)N=c2sc3cc(OC)ccc3n2C)CC1 | i | i | 0% | -1% | -2% | 1.4% | i | 4%

Full records as entered above:
`CCCCC(=O)Nc1nn(CCC)c2nc3ccccc3cc12` is entered as Fluorescein autfl = i; Rhodamine autofl = i; GFP derepression = 0%; DNA Pol III inh = -6%; Ub-GFP proteasome = 3%; HBB splicing = -2.0%[0.369 µM]; Texas Red fluor = i; ALOX15 inhib = 4%
`COc1ccc(C2NC(c3ccc(OC)c(OC)c3OC)C(C)C(=O)C2C)c(OC)c1OC` (centres undefined) is entered as Fluorescein autfl = ?; Rhodamine autofl = i; GFP derepression = 0%; DNA Pol III inh = -2%; Ub-GFP proteasome = 4%; HBB splicing = -0.9%; Texas Red fluor = i; ALOX15 inhib = -6%
`COc1ccccc1NC(=O)CN1CCC(n2c(C)nc3cc(F)ccc32)CC1` is entered as Fluorescein autfl = i; Rhodamine autofl = i; GFP derepression = 1%; DNA Pol III inh = -1%; Ub-GFP proteasome = -1%; HBB splicing = -0.4%[57.5 µM]; Texas Red fluor = i; ALOX15 inhib = -5%

Screens as filed in PubChem BioAssay.
